AmpC nodet inh: blocks E. coli AmpC beta-lactamase in absence of detergent; Potency, µM (doses to about 28.7 µM), inactives show at the highest dose activity change, negative = inhibition; AID 585; hit rate 1.8% among 71,000; AmpC nitrocefin hydrolysis, absorbance 480 nm, no detergent; potencies from a single point are estimates; active = falling curve, for most hits resting on a single point; inconclusive = weak or doubtful change; inactive = flat or rising curve; also: % of control where 0% means no effect; about half of the hits show no inhibition at the top dose; a quarter of the inactives give rising signals
Target sequence (P00811 whole entry, looked up): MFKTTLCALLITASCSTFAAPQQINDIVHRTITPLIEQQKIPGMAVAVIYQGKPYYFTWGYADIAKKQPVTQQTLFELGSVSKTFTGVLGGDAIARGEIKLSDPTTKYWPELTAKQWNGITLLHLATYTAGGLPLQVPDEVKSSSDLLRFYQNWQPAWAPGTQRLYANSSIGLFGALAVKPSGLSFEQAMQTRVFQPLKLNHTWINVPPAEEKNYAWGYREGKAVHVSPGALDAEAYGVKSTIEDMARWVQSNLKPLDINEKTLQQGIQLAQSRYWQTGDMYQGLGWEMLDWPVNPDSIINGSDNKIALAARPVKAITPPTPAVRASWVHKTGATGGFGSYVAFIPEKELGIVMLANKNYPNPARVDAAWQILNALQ
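AmpC, 20 mM phosphate pH 7.0; 15 min cpd preinc, RT; start with nitrocefin (800 uM stock); A480 kinetic read, 20 s intervals, 4 min. No-enzyme wells = negative control.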
An asterisk follows results filed as active; ? = inconclusive; & = joins results of further samples; [ ] = another dose, or the depositor's remark. Potency is read from the fitted curve at half-maximal effect.

compound	AmpC nodet inh
CN(C)S(=O)(=O)Nc1ccc(C(=O)O)cc1	-5.8%
CC1CCCC(C)N1C(=O)CSc1nnnn1Cc1ccccc1 (stereo unspecified)	30.0%
CC(C)[C@]12CC(=O)[C@H](C)[C@H]1C2	-5.7%
Cc1ccccc1NS(=O)(=O)c1ccc(OCC(=O)N2CCCC2)cc1	0.3%
C[C@@H](O)CN(CCN(C[C@@H](C)O)C[C@@H](C)O)C[C@@H](C)O.O=[N+]([O-])O.[Cu]	0.5%[5.75 µM]
CCCCOCCCn1cnc2c([nH]c3cc(OC)ccc32)c1=O	14.8%
O=C(CNC(=O)c1ccco1)OCc1ccc(Cl)cc1	-1.3%
Cc1nc2sc(C(c3cccs3)N3CCC(C(N)=O)CC3)c(O)n2n1 (stereo unspecified)	-6.4%
N=C(N)SCCN1CCCCC1	-0.2%[5.75 µM]
CCN1C(=O)CC(Sc2ccccc2N)C1=O (stereo unspecified)	12.1%
CNc1ccnc(-c2ccccc2C(F)(F)F)n1	5.8%
COc1ccc(CNc2ncncc2-c2cccnc2)c(OC)c1	16.3%
CC(NC(=O)CC1Nc2ccccc2NC1=O)c1ccccc1 (stereo unspecified)	-10.3%
CC(C)OC(=O)CSc1nnnn1-c1ccc2c(c1)OCCO2	-16.8%
Cc1cc(C)n(-c2nc3ccccc3nc2Nc2ccc3c(c2)OCO3)n1	-12.3%

Next section (6 carried over from the part before).
compound	AmpC nodet inh
CCN1C(=O)CC(Sc2ccccc2N)C1=O (stereo unspecified)	12.1%
CNc1ccnc(-c2ccccc2C(F)(F)F)n1	5.8%
COc1ccc(CNc2ncncc2-c2cccnc2)c(OC)c1	16.3%
CC(NC(=O)CC1Nc2ccccc2NC1=O)c1ccccc1 (stereo unspecified)	-10.3%
CC(C)OC(=O)CSc1nnnn1-c1ccc2c(c1)OCCO2	-16.8%
Cc1cc(C)n(-c2nc3ccccc3nc2Nc2ccc3c(c2)OCO3)n1	-12.3%
O=C(O)CNCC1COc2ccccc2O1 (stereo unspecified)	-9.7%
O=C(CCNS(=O)(=O)c1cccs1)N1CCCCCC1	8.7%
CC(C(=O)N1c2ccc(F)cc2CCC1C)N1C(=O)c2ccccc2C1=O (stereo unspecified)	57.6%
Cc1ccc(CCN2CC(C(=O)NCc3cccnc3)CC2=O)cc1 (stereo unspecified)	31.4%
OC[P+](CO)(CO)CO	-8.3%
COc1ccc(C(=O)Nc2ccc(S(=O)(=O)Nc3onc(C)c3C)cc2)cc1	-6.9%
O=C(C[C@@H](C(=O)O)N1CCOCC1)c1ccccc1	0.4%[5.75 µM]
CC(=O)Nc1ccccc1C(=O)N1CC2(C)CC1CC(C)(C)C2 (stereo unspecified)	11.7%
CCOC(=O)Cn1c(=O)oc2cc(S(=O)(=O)NCCc3ccc(OCC)c(OCC)c3)ccc21	50.0%
OCCNCc1ccc(OC2CCCC2)cc1	-6.1%
O=C(O)c1cc(S(=O)(=O)N2CCCCC2)ccc1F	-4.0%
O=C(C1CCCN(S(=O)(=O)c2ccc(F)cc2)C1)N(Cc1cccs1)C1CC1 (stereo unspecified)	31.5%
O=C(CN1CCOc2ccccc21)NC1CC1	-15.5%
CC(=O)c1cccc(NC(=O)NCc2cccs2)c1	-4.7%
CCCCn1c(SCC(=O)N2CCN(c3ccccc3)CC2)nc2ccsc2c1=O	36.4%

compound	AmpC nodet inh
CCOC(=O)C1=C(CC)Nc2ccccc2N=C1NC(=O)c1cccc(S(=O)(=O)N2CCCC2)c1	37.9%
N#Cc1nc(-c2cccs2)oc1N1CCOCC1	14.5%
CC(C)OC(=O)C1C(=O)NC2(C)CC1c1ccccc1O2 (stereo unspecified)	5.3%
COc1ccc(-c2nc3cnc(N4CCN(C)CC4)nc3n(CCC#N)c2=O)cc1	63.7%
Cn1c(=O)c2c(nc(NC3CCCCC3)n2CC(O)COc2ccccc2)n(C)c1=O (stereo unspecified)	97.7%
O=C(O)c1cc2c(cc1S(=O)(=O)O)[C@H]1[C@@H]([C@H]3[C@H]2[C@@]2(Cl)C(Cl)=C(Cl)[C@]3(Cl)C2(Cl)Cl)[C@]2(Cl)C(Cl)=C(Cl)[C@@]1(Cl)C2(Cl)Cl	10.8%[5.75 µM]
CCCN1Cc2cccc(C(=O)Nc3ccc4c(c3)OCCO4)c2C1=O	90.1%
CCOC(=O)N1CCN(CC(O)c2ccc3cc[nH]c3c2)CC1 (stereo unspecified)	50.9%
c1ccc(-c2oc3ncnc(N4CCOCC4)c3c2-c2ccccc2)cc1	85.3%
COc1ccc2cc(S(=O)(=O)N3CCCCC3)ccc2c1S(=O)(=O)N1CCCCC1	41.4%
CCCOc1ccccc1C1CC(=O)Nc2cc3c(cc21)OCCO3 (stereo unspecified)	12.7%
CC1CCCCC1NC(=O)CSc1nnc(CN2CCOCC2)n1C (stereo unspecified)	-5.8%
COC(=O)c1c(C(=O)OC)c2cc(C)ccn2c1Cl	33.6%
CCNc1ccccc1	1.3%
COCCOC(=O)C1=C(C)N=C2SCCC(=O)N2C1/C=C/c1ccccc1 (stereo unspecified)	104.2%

Two compounds drawn at random from the list so far, as already listed:
compound	AmpC nodet inh
CCOC(=O)N1CCN(CC(O)c2ccc3cc[nH]c3c2)CC1 (stereo unspecified)	50.9%
CC(C)OC(=O)C1C(=O)NC2(C)CC1c1ccccc1O2 (stereo unspecified)	5.3%

The list continues:
compound	AmpC nodet inh
CN(C)CCCN1C(=O)C(=O)/C(=C(/O)c2ccncc2)C1c1cccnc1 (stereo unspecified)	0.3%
C=CCn1c2ccccc2c2nnc(SCN3C(=O)c4ccccc4C3=O)nc21	15.8%
Cc1oc(C)c2c(=O)ccc3c(c12)OC(N)=C(C#N)C3c1ccccc1Cl (stereo unspecified)	-17.2%
CCn1cc(C(=O)NCCCN2CC(C)CC(C)C2)c(=O)c2cc(S(=O)(=O)N(C)C)ccc21 (stereo unspecified)	3.16µM*[single pt active]
COc1ccccc1-n1c(SCC(N)=O)nnc1-c1ccc(S(=O)(=O)N2CCCCC2)cc1	122.3%
CCC#CCOCC(=O)Nc1ccccc1	12.4%
CCOc1ccc(NC(=O)CCN2CCN(c3ccccc3OC)CC2)cc1	61.0%
C[C@H](Br)CN(C[C@H](C)Br)c1ccc2c(c1)Cc1ccccc1-2	25.9%[5.75 µM]
O=c1c2c(nc3n1CCCCC3)sc1c(O)cccc12	-15.9%
O=C(O)c1ncn(Cc2ccccc2)c1C(=O)O	-0.7%
O=C(NC[C@H]1CCCCN1)c1cc(OCC(F)(F)F)ccc1OCC(F)(F)F	18.3%&18.5%
Nc1nc(CC(=O)O)cs1	-14.2%
O=C(c1cc(-c2ccco2)on1)N1CCc2ccccc2C1	-2.2%
C=C(C)[C@H]1CC=C(C)C(=O)C1	-5.1%
CCn1c(Cn2nnc(-c3ccccc3)n2)nnc1SCC(=O)Nc1ccccc1	9.0%

compound	AmpC nodet inh
COc1ccc(N2CC(C)Cn3c2nc2c3c(=O)n(CCN3CCOCC3)c(=O)n2C)cc1 (stereo unspecified)	100.3%
O=S(=O)(NCc1csc(-c2cccnc2)n1)c1ccc2c(c1)OCCO2	-15.6%
Cc1noc(C)c1CSc1nc2ccccc2[nH]1	4.5%
COc1ccc(C(C#N)N2CCCCCC2)cc1OC (stereo unspecified)	6.8%
CCC(C)NC(=O)c1c(N)n(/N=C/c2cccnc2)c2nc3ccccc3nc12 (stereo unspecified)	103.9%
CCN(CC)c1ccc(NC(=O)C(C)C)cc1	1.3%
COc1cc(C2CC(=O)N3CN(Cc4ccco4)CSC3=C2C#N)ccc1OCc1ccccc1 (stereo unspecified)	3.98µM*[single pt active]
CC1CCCCC1NC(=O)CSc1nnnn1-c1ccccc1 (stereo unspecified)	4.1%
CC(C)n1c(C(O)c2ccccc2)nc2ccccc21 (stereo unspecified)	-3.9%
O=C(Cn1c(=O)[nH]c2ccsc2c1=O)NC1CCCCCC1	-9.7%
O=c1c2ccccc2nc(-c2ccco2)n1-c1ccncc1	5.7%
CCOc1ccc(/C(O)=C2/C(=O)C(=O)N(CCOCCO)C2c2ccccn2)cc1 (stereo unspecified)	-15.0%
O=c1[nH]c(C(F)(F)F)nc2ccccc12	-1.1%
COc1ccc(-c2ccc(-c3noc(-c4cccs4)n3)c(OC)n2)cc1	-4.3%
O=C(CSc1nnc(Cc2ccccc2)o1)N1CCOCC1	-0.5%

compound	AmpC nodet inh
CCn1ccc(C(=O)Nc2ccc(N(C)C(C)=O)cc2)n1	-15.7%
Cc1noc(C)c1C(=O)N1CCC2(CCCN(C(=O)Nc3cccc(C#N)c3)C2)CC1	13.1%
CNc1nc(N)c(C(=O)C(C)(C)C)s1	9.7%
Cc1ccc(-c2noc(CN3C(C)CCCC3C)n2)cc1 (stereo unspecified)	3.98µM*[single pt active]
CCOC(=O)C(C)C(C)=O (stereo unspecified)	-11.2%
Cn1c(SCC(=O)NC2CCCC2)nnc1-c1ccc(S(=O)(=O)N2CCOCC2)cc1	13.1%
O=C(CN(Cc1cccs1)C(=O)CNS(=O)(=O)c1ccccc1)NCc1ccco1	-3.9%
COCC(=O)Nc1nc(-c2ccccc2)c(C)s1	8.9%
Clc1ccc(CN2C3=NCCCN3c3ccccc32)cc1	10.7%
COc1ccc(C(=O)N2CCN(C(=O)CC(C)C)CC2)cc1OC	13.5%
Cc1oc2c(C)c3oc(=O)c4c(c3cc2c1C)CCCC4	1.5%
Fc1ccc(Br)cc1C1C=C(c2cccnc2)Nc2ncnn21 (stereo unspecified)	-1.1%
C[C@@H](C1=C(CCN(C)C)Cc2ccccc21)c1ccccn1	18.8%
Cc1nnc(SCc2nnc(-c3ccccc3)o2)n(N)c1=O	-5.2%
CN1C(=O)c2oc3ccccc3c(=O)c2C1c1ccccn1 (stereo unspecified)	-12.8%

compound	AmpC nodet inh
CCSc1nc2c(c(=O)[nH]1)C(c1ccccn1)C1=C(CC(C)(C)CC1=O)N2 (stereo unspecified)	-10.4%
COc1ccc(-c2nnnn2CCc2ccccc2)cc1	12.7%
CCC(=O)N1CCc2cc(S(=O)(=O)N(CC)c3cccc(C)c3)ccc21	10.0%
CC1CCCCN1CCNC(=O)Cn1nc(-c2ccccc2)ccc1=O (stereo unspecified)	-1.7%
Cc1nonc1NC(=O)OCCN1CCOC1=O	-12.7%
COc1ccc(NC(=O)CN2CCCCC2)cc1	-22.4%
O=C(Nc1ccccc1)N(Cc1ccc2c(c1)OCO2)Cc1nc2ccccc2c(=O)[nH]1	-5.4%
Cc1ccc(-c2nc3s/c(=C\c4ccco4)c(=O)n3n2)cc1	-5.0%
CC(=O)c1cccc(NC(=O)CN(c2ccc(F)cc2)S(C)(=O)=O)c1	8.7%
COc1ccc(Br)cc1C(=O)Nc1cccc(NC(=O)c2ccco2)c1	?
CCCn1c(N2CCN(CC(=O)NCc3cccs3)CC2)nc2ccccc21	78.1%
CCSC[C@@H](N)C(=O)O	-4.9%[5.75 µM]
CCC(CC)C(=O)NCCc1cc2ccc(C)c(C)c2[nH]c1=O	2.3%
COc1ccc(OC)c(NC(=O)CN2C(=O)C3(OCCCO3)c3ccccc32)c1	26.8%
COC(=O)c1nc(NC(C)=O)n[nH]1	-10.4%

compound	AmpC nodet inh
COc1ccc(C2=NOC(C(=O)NCCCN3CCOCC3)C2)cc1 (stereo unspecified)	7.4%
O=c1[nH]c(SCC2CCCCO2)nc2ccccc12 (stereo unspecified)	-2.7%
S=C(Nc1ccccc1)Nc1ccccc1C#Cc1ccccc1	5.01µM*
Cc1ccnc(NC(=O)c2c(O)c3ccccc3n(C)c2=O)c1	57.9%
Cn1c(=O)cc(NCCc2ccccc2)[nH]c1=O	-6.9%
O=C(NC1c2ccccc2-c2ccccc21)c1ccco1	-12.6%
CC(=O)c1c(C(C)=O)c(C)n(-c2nc(-c3ccccc3)c(C)s2)c1C	38.5%
CCC(NC(=O)NCc1cccnc1)(C(F)(F)F)C(F)(F)F	5.6%
COC(=O)Cn1c2ccccc2c2nc(C)sc21	13.6%
CC(C)N1CCN(c2ccncc2S(=O)(=O)N2CCCCC2)CC1	-1.6%[5.75 µM]
COP(C)(=O)c1c(C)nn(-c2ccccc2)c1C (stereo unspecified)	-10.0%
CCc1ccc(NC(=O)C2CC(=O)N(C(C)C)C2)cc1 (stereo unspecified)	6.6%
CCOc1ccc(Nc2nc3c(c(=O)[nH]2)CCCC3)cc1	-12.8%
C=CCNC(=O)C(C#N)c1nc2ccccc2nc1N1CCN(Cc2ccccc2)CC1 (stereo unspecified)	38.5%
O=C(CCSc1nc(-c2ccco2)cc(C(F)(F)F)n1)NCC1CCCO1 (stereo unspecified)	42.1%

compound	AmpC nodet inh
COCC(=O)Nc1ccccc1C(=O)Nc1ccc(OC)cc1	-2.4%
CCOC(=O)C1CCN(C(=O)CCCOc2ccccc2)CC1	44.1%
Cc1ccccc1-c1ccc2ncnc(NCCN3CCOCC3)c2c1	85.3%
COc1ccc(CNc2oc(-c3cccc4ccccc34)nc2C#N)cc1	-24.0%
Clc1ccccc1CSc1ncccn1	10.9%
Cn1c(C(=O)N2CCN(c3ccc(Cl)cc3)CC2)cc2c(=O)[nH]c3ccccc3c21	30.3%
CCCC(=O)Nc1ccccc1-c1nnc(SC)[nH]c1=O	-0.1%

Screening data deposited in PubChem by National Center for Advancing Translational Sciences (NCATS).

Only part of the results is shown (hit frequency here may not be typical).
